CapD inh: Bacillus anthracis CapD inhibitors, primary screen, biochemical, fluorescence intensity. purified CapD enzyme, fluorescence intensity read-out; stronger effect = lower value; some hits fall short of the stated cut. AID 492967, 2010. z-score (concentration not given with the values). 140,000 compounds, 0.23% hits;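 active = z-score under -4 in either of two replicates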;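 note: stock transfer was 100 nL into about 40 µL; score is relative to mean and spread of the plate; one replicate is shown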
AID504770: growth inhibition of E. coli YBA685, primary screen, V. cholerae RctB inhibitors. 130,000 compounds, 0.27% hits. z-score (no concentration beside the values). E. coli YBA685 rctB-dependent plasmid, OD600 growth, 3 h; stronger effect = lower value;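 active = z-score under -2 on both plates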;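 note: wells of about 30 µL received 100 nL stock; score is relative to mean and SD of the test wells; the first replicate is given; strong numbers were not always called active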
* = called active by the depositor; · = no result given; & = joins results of further samples. These rows are one share of the data; rates above refer to the full screens.

| mol | CapD inh | AID504770 |
| --- | --- | --- |
| O=C(CCCCCN1C(=O)C2C3C=CC(C3)C2C1=O)Nc1ncccc1O (stereo not given) | 1.81 | -0.7 |
| COC(=O)C1=CN(C)C=C(C(=O)OC)C1c1ccc(OC)cc1 | 72.1 | 0.6 |
| COc1ccc(NC(=O)c2ccc3c(=O)n(CC4CCCO4)c(=S)[nH]c3c2)cc1Cl (stereo not given) | 0.27 | · |
| COc1ccc(N(Cc2nnc3n2CCCCC3)C(=O)Nc2ccccc2)cc1 | 0.725 | -0.9 |
| CCc1ccc(N(CC)c2ncnc3c2nc2n3CCCCC2)cc1 | 0.23 | -0.55 |
| O=C(COc1ccc(Cl)cc1)N1CCN(Cc2ccc3c(c2)OCO3)CC1 | 0.12&-0.5 | -0.1 |
| O=C(Nc1nnc(-c2ccc(Br)cc2)s1)C1CC1 | 0.64 | 0.95 |
| O=C(Oc1ccc(C2Oc3ccccc3C3CC(c4ccc(Cl)cc4)=NN32)cc1)c1ccccc1 (stereo not given) | 0.815 | · |
| CCN1C(=O)/C(=C2\SC(=S)N(c3cc(OC)ccc3OC)C2=O)c2ccccc21 | -1.29 | · |
| CCc1ccc(OCC(=O)N/N=C(\C)c2ccc(-n3ccnc3)cc2)cc1 | · | -0.45 |
| O=c1[nH]c(CSc2nc3ccccc3o2)nc2ccccc12 | 1.46 | 0.15 |
| COc1ccc(CNC(=O)c2ccc(Cn3cc(Cl)cn3)o2)cc1 | 0.235 | 0.35 |
| CNCc1ccc(OC)cc1 | · | -1.25 |
| O=C(O)CCSc1nnc(-c2cccs2)o1 | · | 0.6 |
| CC/C(C)=N/NS(=O)(=O)c1ccccc1 | · | 0.65 |
| Cn1cc(/C=N/NC(=O)c2ccc(Cn3cnc(Cl)c3Cl)o2)c2ccccc21 | 2.33 | · |
| CN1CCN(C(CNC(=O)Cc2ccc(F)cc2)c2ccc(F)cc2)CC1 (stereo not given) | · | -0.75 |
| Cc1ccc(OCCOc2ccc(/C=C3/C(=N)N4C(c5ccccc5)=CSC4=NC3=O)cc2)cc1 | -0.605 | · |
| CCc1ccc(C(=O)CCC(=O)O)s1 | · | -3.1* |
| O=C(OCCCN1CCCCC1)c1ccc(O)cc1 | -0.205 | -0.65 |
| COc1cc(C(=O)COC(=O)C2CC(=O)N(Cc3ccco3)C2)cc(OC)c1OC (stereo not given) | · | -0.5 |
| CCOc1ncccc1C(=O)NNc1ccc(S(=O)(=O)N2CCN(C)CC2)cn1 | · | 2.2 |
| O=C(/C=C/c1ccc(S(=O)(=O)N2CCOCC2)cc1)N(c1ccccn1)C1CCCCC1 | · | 0.5 |
| COc1ccc(C2(c3ccc(OC)cc3OC)C=Cc3c(ccc4ccccc34)O2)c(OC)c1 | -0.185 | · |
| ClCc1csc(-c2ccccc2)n1 | -0.785 | -0.05 |
| COc1ccccc1CN(C(C)=O)C1CC(C)(C)N(C(C)=O)C(C)(C)C1 | 0.05 | -1.95 |
| COc1ccccc1NC(=O)Cn1cnc2sc(C(=O)N3CCN(c4ccc([N+](=O)[O-])cc4)CC3)c(C)c2c1=O | 0.815 | · |
| CN(C)c1ccc(NC(=O)NCc2ccccc2)cc1 | 0.49 | -0.7 |
| CCCOc1ccc(C2NC(=O)NC(C)=C2C(=O)OCCCBr)cc1 (stereo not given) | -0.955 | · |
| O=C(OCC1CC1)c1cnc(Sc2ccccn2)nc1C(F)(F)F | -0.095 | -0.25 |
| C#CCOc1ccc2ccccc2c1CO | 6.86 | 1 |
| N=c1sccn1CC(=O)O | 0.375 | -0.45 |
| CCOC(=O)CSc1nc(NCC2CCCO2)c2ccccc2n1 (stereo not given) | 3.98 | · |
| O=C(Nc1sccc1C(=O)N1CCOCC1)c1cccnc1 | -0.6 | -0.9 |
| O=C(Nc1nncs1)C12CC3CC(CC(C3)C1)C2 | -0.09 | 0.8 |
| NC(=O)c1c(O)c2c([nH]c1=O)CCCC2 | · | 0.1 |
| Cc1noc2ncnc(Nc3ccccc3)c12 | -0.1 | -1.3 |
| Cc1c(N)cccc1-c1nc2ccccc2o1 | 52 | 0 |
| CS(=O)(=O)N(Cc1cccc(F)c1)n1c(SCc2cccc(F)c2)nc2ccccc2c1=O | 11.9 | -0.05 |
| Cc1[nH]c(=O)c(C#N)c(C)c1CCC(=O)N[C@@H](Cc1ccccc1)c1nc2ccccc2[nH]1 | · | 3.45 |
| O=C1C(=O)N(Cc2cccc(Cl)c2)C(=O)N1Cc1cccc(Cl)c1 | -0.33 | · |
| COc1ccc(COC(=O)C2=C(C)NC3=C(C(=O)CCC3)C2c2cc(OC)c(OC)cc2OC)cc1 (stereo not given) | 1.16 | · |
| O=C(NCc1cccnc1)c1ccc(Cn2cc(C(F)(F)F)ccc2=O)cc1 | -0.235 | · |
| Cc1cccc2nc(CSC3=Nc4ccccc4C4=NC(CCC(=O)NCc5ccco5)C(=O)N34)cc(=O)n12 (stereo not given) | 2.38 | -1.7 |
| CC(C)n1ncc2c(C(=O)O)cc(C3CC3)nc21 | · | -0.9 |

Compound profiles, as listed above.
Record of CCOC(=O)CSc1nc(NCC2CCCO2)c2ccccc2n1 (stereo not given) = CapD inh = 3.98; AID504770 = ·
Record of Cc1[nH]c(=O)c(C#N)c(C)c1CCC(=O)N[C@@H](Cc1ccccc1)c1nc2ccccc2[nH]1 = CapD inh = ·; AID504770 = 3.45
Record of C#CCOc1ccc2ccccc2c1CO = CapD inh = 6.86; AID504770 = 1

More compounds follow:
| mol | CapD inh | AID504770 |
| --- | --- | --- |
| CNC(C)(C)Cc1ccccc1 | -0.36&2.12 | 0.1 |
| N#Cc1c2c(c(NCC3CCCO3)n3c1nc1ccccc13)CCCC2 (stereo not given) | · | 0.15 |
| CCOc1cc(/C=C2\C(=O)N(c3ccc(S(N)(=O)=O)cc3)N=C2C)cc([N+](=O)[O-])c1O | -0.295 | · |
| O=C1CCCN1Cc1nnc(SCc2c(Cl)cccc2Cl)o1 | · | -0.45 |
| CN1CCC(OC(=O)COc2ccccc2)CC1 | -0.27 | 2.35 |
| CCCCn1c(=O)c(C(=O)Nc2nc(CC(=O)OCC)cs2)c(O)c2ccccc21 | -0.565 | · |
| CC(OC(=O)C1CCN(c2ccc(C(F)(F)F)cn2)CC1)C(=O)N(C)c1ccccc1 (stereo not given) | · | 1.25 |
| CCOC(=O)N1CCC(NC(=O)c2cc(C(=O)Nc3ccc(C)c(F)c3)ccc2CO)CC1 | -0.035 | -0.8 |
| O=C(N/N=C/c1c(O)ccc2ccccc12)c1csc(CS(=O)(=O)Cc2ccco2)n1 | -1.06 | · |
| COc1ccc(C2Nc3ccc4ccccc4c3C3=C2C(=O)CCC3)cc1OC (stereo not given) | 87.6 | · |
| O=C(NCC[n+]1ccc2ccccc2c1)c1ccccc1 | 36.1 | -0.5 |
| CSc1ccccc1Nc1ncnc2c1cnn2-c1ccccc1 | 0.355 | -0.3 |
| CC(C)(C)c1ccc(C23OC(=O)C(C)(C)C2OC(=O)C3(C)C)cc1 (stereo not given) | 0.32 | 0.05 |
| CCOc1ccc(N2C(=O)c3ccc(OC)c(OC)c3C2=O)cc1 | · | -0.65 |
| Cc1ccc(S(=O)(=O)n2ncc3c2CCN(C(=O)OC(C)(C)C)C3)cc1 | -0.015 | -0.35 |
| c1ccc(Cn2cc(-c3ccncc3)cn2)nc1 | -0.615 | · |
| O=C(OCCNc1c(F)c(F)nc(F)c1F)c1ccccc1 | 79.6 | -0.2 |
| CCc1ccc(NC(=O)Nc2nnc(N(CC(C)C)CC(C)C)s2)cc1 | 1.4 | -0.6 |
| Cc1noc2c1C(c1ccccc1)C1=C(CC(C)(C)CC1=O)N2 (stereo not given) | 96.2 | 0.65 |
| CCCCN(CCCC)CCNS(=O)(=O)c1ccc(Br)cc1 | 0.3 | · |
| CC1=CC(C)(C)N(C(=O)CSc2ccccn2)c2ccccc21 | 1.7 | 0.05 |
| O=C(O)CCC1=C2c3ccccc3CCN2C(=O)CC1 | -0.11 | · |
| O=C(Nc1ccccc1Cl)c1ccc(F)c(S(=O)(=O)N2CCN(Cc3ccc4c(c3)OCO4)CC2)c1 | 0.465 | · |
| c1ccc2c(C3=NCCO3)c[nH]c2c1 | -0.075 | -1 |
| CCOc1ccc(C2c3[nH]c4ccccc4c3CCN2C(=O)c2cccs2)cc1 (stereo not given) | 0.41 | · |
| COC(=O)c1cc(NC2c3ccccc3C(=O)N2c2ccccn2)cc(C(=O)OC)c1 (stereo not given) | 0.06 | 0.45 |
| CC(C)(C)OC(=O)N1CCC(CNC(=O)Nc2ccccc2)CC1 | 0.165 | -0.85 |
| Cc1ccc(C(=O)Nc2c(-c3ccccc3)nc3scnn23)cc1 | -0.105 | -0.3 |
| Cn1c(SCC(=O)NC(C)(C)C)nnc1-c1ccccc1 | · | 0.1 |
| CC(=O)Nc1c(-c2ccccc2)nc2cc(C)ccn12 | 78.7 | 0.05 |

Going on with the list:
Order of values: CapD inh	AID504770
- COc1ccc(CN(Cc2ccccc2)C(=S)Nc2c(C)cccc2C)cc1OC
  -0.265	·
- CCn1c(=O)c2cc(C(=O)NCCN(C)C)sc2c2ccccc21
  -1.33	-0.5
- c1csc(-c2ccc(-c3ccn[nH]3)s2)c1
  76.7	2.6
- NC(=O)Cc1coc2ccc3ccccc3c12
  6.2	0.7
- CCOCCCn1c(NN)nc2ccccc2c1=O
  ·	0
- COc1ccc(NC(=O)n2ncc3cc(Cl)ccc32)cc1
  0.785	0.95
- Cc1ccc(C(=O)OC(C)CN2C(C)CCCC2C)cc1 (stereo not given)
  1.71	-1.65
- COc1cccc(-c2nn(-c3ccc(F)cc3)cc2C(=O)N2CCN(c3ccccc3O)CC2)c1
  ·	-0.6
- CCCn1c(N)cc(=O)[nH]c1=O
  ·	-0.7
- COC(=O)C1=C(c2ccccc2)C(c2ccccc2)=C(C(=O)OC)C1=O
  0.23	-0.05
- O=C(CSc1ccccc1)c1ccccc1
  -0.965	0.4
- NC(Cc1csc2ccc(Cl)cc12)C(=O)O (stereo not given)
  2.6	·
- COc1ccccc1-n1c(C)cc(/C=C(\C#N)C(=O)OCc2nnc(-c3ccccc3)o2)c1C
  ·	-1.8
- CN(CC(=O)NCCc1ccc(Cl)cc1)CC1COc2ccccc2O1 (stereo not given)
  ·	-0.75
- COCCn1c(C)cc(C(=O)COC(=O)c2ccc3c(=O)n4c(nc3c2)CCCCC4)c1C
  ·	-0.45
- COc1cccc(C2=NOC(C(=O)NCC3CCCO3)C2)c1 (stereo not given)
  0.14	-0.05
- Cc1cc(-c2ccc(C)c(S(=O)(=O)NCCCN3CCCCCC3)c2)on1
  0.795	-0.05
- Cc1ccc(C)c(N2CCN(C(=O)CN3CC(c4ccccc4)CC3=O)CC2)c1 (stereo not given)
  1.14	-0.7
- COC(=S)Nc1ccccc1Cl
  -0.945	3.05
- CC(=O)Nc1cccc(C(=O)OCCN2C(=O)c3ccccc3C2=O)c1
  ·	0.2
- Cn1c(=O)[nH]c(=O)c2c1nc(SCC(=O)c1ccc([N+](=O)[O-])cc1)n2CC(O)COc1ccc(Cl)cc1 (stereo not given)
  0.145	·
- CCCc1ccc(S(=O)(=O)N2CCN(Cc3cc(Br)c(OC)cc3OC)CC2)cc1
  -0.21	·
- O=C(CSCc1ccc(Cl)cc1)NCc1ccc2c(c1)OCO2
  -0.06	0.65
- CS(=O)(=O)N(CC(=O)N1CCN(C(c2ccccc2)c2ccccc2)CC1)c1cccc(Cl)c1
  0.115	·
- O=C1CSC(=Nc2ccccc2C(F)(F)F)N1
  -0.36	0.5
- CCOC(=O)C1CCCN(C(=O)c2ccc3c(c2)NC(=O)c2ccccc2S3)C1 (stereo not given)
  -0.135	0.05
- O=C1/C(=N\n2cnc3c(cnn3-c3ccccc3)c2=O)c2ccccc2N1CO
  ·	1.4
- N#C/C(=C\c1ccc[nH]1)S(=O)(=O)c1ccccc1
  -0.61	0.6
- Cc1ccc(C2NC(=S)NC3=C2N2CCC3CC2)cc1 (stereo not given)
  -0.57	-0.25
- Cc1ccc2c(c1)CCCN2C(=S)Nc1cccc(C(F)(F)F)c1
  -0.735	-1.1

Not a retest: an excerpt of the list.
Order of values: CapD inh	AID504770
- COc1cccc(C2=NOC(C(=O)NCC3CCCO3)C2)c1 (stereo not given)
  0.14	-0.05
- Cc1cc(-c2ccc(C)c(S(=O)(=O)NCCCN3CCCCCC3)c2)on1
  0.795	-0.05
- Cc1ccc(C)c(N2CCN(C(=O)CN3CC(c4ccccc4)CC3=O)CC2)c1 (stereo not given)
  1.14	-0.7
- COC(=S)Nc1ccccc1Cl
  -0.945	3.05
- CC(=O)Nc1cccc(C(=O)OCCN2C(=O)c3ccccc3C2=O)c1
  ·	0.2
- Cn1c(=O)[nH]c(=O)c2c1nc(SCC(=O)c1ccc([N+](=O)[O-])cc1)n2CC(O)COc1ccc(Cl)cc1 (stereo not given)
  0.145	·

(continued)
Order of values: CapD inh	AID504770
- CC(=O)Nc1ccc(S(=O)(=O)Nc2ccccc2-c2cnn(-c3ccc(S(C)(=O)=O)cc3)c2)cc1
  -0.555	·
- CCc1ccc(OCC(=O)Nc2sc3c(c2C(=O)OC)CCCC3)cc1
  0.68	1.8
- O=C(CSc1nc2cc(S(=O)(=O)N3CCCCC3)ccc2o1)Nc1ccccc1F
  ·	1.35
- COC(=O)c1ccc(Cn2c(C)cc(C)[n+]2C)o1
  -1.12	0.2
- COC(=O)C(/C=N/OCc1ccc(Cl)cc1Cl)NC(=O)c1ccccc1 (stereo not given)
  -0.69	·
- O=C(CCNS(=O)(=O)c1cccs1)NC1CCCc2ccccc21 (stereo not given)
  ·	-1.2
- COc1ccc(Cc2nnc(SCc3cccc(C(=O)O)c3)o2)cc1OC
  ·	2.05
- CCOC(=O)/C=C(\C)Nc1ccc2cn[nH]c2c1
  0.835	2.2
- COc1ccc(Cc2nnc(SCC(N)=O)o2)cc1
  ·	-0.4
